Arbovirus inh – antivirals against arbovirus infection; arbovirus infection cell-based antiviral screen; inhibition, % at 10 µM; 0.37% of 200,000 active; AID 1251;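 active = inhibition from about 30%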;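 note: bluetongue infection of BSR cells; cell survival read as ATP light after 72 h; 0% = infected wells without compound and 100% = uninfected wells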
Mtb growth – M. tuberculosis H37Rv growth inhibitors, H37Rv strain (AID 1626); M. tuberculosis H37Rv growth inhibition; higher % means a stronger effect; 0.95% of 220,000 active; inhibition, % at 10 µM; hits with a dose series show IC50 in µM;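 active = confirmed in a dose series; inconclusive = inhibition above 80% but not taken into the dose series; inactive = below 80% or under 30% at every dose of the series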;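 note: bacteria incubated seven days before Alamar blue readout; 0% = bacteria only wells and 100% = bacteria with antibiotic wells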
YopH inh – YopH (Yersinia) phosphatase inhibition; fluorescence Ex485/Em525; inhibition, %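 (about 10 µM by stock and volumes)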; 0.16% of 140,000 active; AID 898;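 active = inhibition of 50% or more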;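 note: controls were vehicle for no effect and minimum signal wells for full effect; inactives centre near -20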
Mtb bLac sens – beta-lactam sensitization of Mtb H37Rv | inhibition, % at 25 µM | 0.27% of 330,000 active | M. tuberculosis H37Rv growth with meropenem, percent inhibition; hits of this screen are not shown here;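 active = about 74% or more and at least 40 points above the plate without the antibiotic, then above 30% in a dose series; inconclusive = first-round hits that could not be retested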;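 note: growth measured after seven days incubation then overnight dye step; 0% = bacteria only wells and 100% = bacteria with antibiotic; twin plates without the antibiotic show which effects depend on it; some results filed as inactive read as strong as hits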
RecA splice inh – inhibitors of M. tuberculosis RecA intein splicing; cell-free RecA intein splicing, fluorescence; 0.75% of 290,000 active; P9WHJ3; inhibition, %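 (about 9 µM by stock and volumes)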; in the data active = inhibition above about 30%; inconclusive = no clear call, values can overlap the other calls;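 note: 0% = vehicle wells and 100% = reference inhibitor control wells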
Target sequence (P9WHJ3 whole entry, looked up, canonical isoform): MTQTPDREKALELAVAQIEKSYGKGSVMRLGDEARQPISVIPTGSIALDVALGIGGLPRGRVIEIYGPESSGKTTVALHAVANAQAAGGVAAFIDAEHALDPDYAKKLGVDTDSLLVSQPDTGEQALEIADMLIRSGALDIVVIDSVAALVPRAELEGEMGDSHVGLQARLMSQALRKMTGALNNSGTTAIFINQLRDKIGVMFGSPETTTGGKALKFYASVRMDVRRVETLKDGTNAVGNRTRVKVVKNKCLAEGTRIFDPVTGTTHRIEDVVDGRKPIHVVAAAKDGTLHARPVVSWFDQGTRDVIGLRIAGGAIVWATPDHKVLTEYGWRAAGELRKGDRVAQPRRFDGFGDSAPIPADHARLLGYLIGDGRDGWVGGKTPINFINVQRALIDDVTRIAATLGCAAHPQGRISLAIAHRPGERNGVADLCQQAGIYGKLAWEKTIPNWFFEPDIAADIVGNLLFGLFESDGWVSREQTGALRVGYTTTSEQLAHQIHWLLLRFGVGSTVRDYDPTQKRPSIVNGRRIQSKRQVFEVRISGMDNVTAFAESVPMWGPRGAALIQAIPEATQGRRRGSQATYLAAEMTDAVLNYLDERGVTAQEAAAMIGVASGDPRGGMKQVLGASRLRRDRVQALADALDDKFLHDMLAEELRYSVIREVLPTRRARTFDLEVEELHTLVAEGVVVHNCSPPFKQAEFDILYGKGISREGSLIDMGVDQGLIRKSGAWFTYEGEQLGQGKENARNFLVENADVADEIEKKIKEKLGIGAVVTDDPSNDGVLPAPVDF
Arbovirus inh repeat – recorded beside Arbovirus inh, whose call it bears; inhibition, %; measured here: 10K subset replicate screen; many hits read low in the repeat;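 first of two repeat runs on a subset; 0% = infected and 100% = uninfected wells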
Starred values were filed as active, the others as inactive; ? = inconclusive; nt = no result given.

The opening three records, ahead of the listing:
SMILES	Arbovirus inh	Mtb growth	YopH inh	Mtb bLac sens	RecA splice inh	others
O=c1c2ccc(Cl)cc2nc(-c2ccc([N+](=O)[O-])cc2)n1O	-9.2	?	nt	98.0	0.6
CCOC(=O)c1c(NC(=O)CSc2nncn2C)sc(C)c1C	-1.6	nt	4.1	-0.7	2.8
COc1ccccc1NC(=S)NC1CCCCCC1	9.0	-4.6%	-12.8	-0.2	0.1

Results, previewed entries included:
SMILES	Arbovirus inh	Mtb growth	YopH inh	Mtb bLac sens	RecA splice inh	others
O=c1c2ccc(Cl)cc2nc(-c2ccc([N+](=O)[O-])cc2)n1O	-9.2	?	nt	98.0	0.6
CCOC(=O)c1c(NC(=O)CSc2nncn2C)sc(C)c1C	-1.6	nt	4.1	-0.7	2.8
COc1ccccc1NC(=S)NC1CCCCCC1	9.0	-4.6%	-12.8	-0.2	0.1
CCc1ccc(NC(=O)c2cc(-c3ccc4c(c3)OCO4)on2)cc1	nt	nt	nt	-2.1	-1.0
Cc1cc(O)c(C=Nc2ccc(N3CCOCC3)cc2)c(C)c1Cl	nt	nt	nt	-3.0	-5.6
CC(c1ccccc1)n1c(NCCCn2ccnc2)nc2c1c(=O)[nH]c(=O)n2C (stereo not given)	11.3	-0.1%	-27.5	nt	nt
Cc1ccnc(NC(=O)c2ccc3c(c2)OCO3)c1	-12.1	-4.6%	nt	-4.5	0.8
COc1ccc(CCNc2c(C)c(C)nc3ncnn23)cc1	1.4	1.4%	-47.7	-8.1	0.7
Nc1cc(=O)nc(SCC(=O)N2CCN(c3ccccc3)CC2)n1-c1ccccc1	nt	nt	nt	-1.6	-2.0
COc1ccc(S(=O)(=O)N2CCC(C(=O)N[C@@H](C)C(=O)NCc3cccc(OC)c3)CC2)cc1	nt	nt	nt	4.7	1.7
COC(=O)c1cccc(N(C(=O)CNC(=O)c2cccs2)C(C(=O)NCC2CCCO2)c2ccc(OC)c(OC)c2)c1 (stereo not given)	nt	nt	nt	-8.3	-2.0
Cc1ccc(S(=O)(=O)N2CCOCC2)cc1C(=O)N1CCCC1	nt	nt	nt	-3.3	-3.0
COc1cc(CN2CCN(Cc3ccc([N+](=O)[O-])cc3)CC2)c([N+](=O)[O-])cc1OC	14.7	70.8%	nt	0.6	-1.1
CC(C)CCN1CC(O)=C(c2nc(-c3ccc(Cl)cc3)cs2)C1=N	-1.7	-1.3%	-6.8	26.4	-7.6
O=C(N/N=C/c1ccccn1)c1ccncc1	nt	nt	nt	87.1	-1.0
CN1/C(=C\C=[N+](C)c2ccccc2)C(C)(C)c2ccccc21	13.5	3.0%	-12.0	0.3	-0.7
O=C(N/N=C/c1cc2cc3c(cc2nc1Cl)OCCO3)c1ccccc1O	-7.3	-1.9%	-8.1	-6.0	-1.7
CC(=O)Nc1cc(NC(C)=O)cc(-c2nc3ccccc3[nH]2)c1	7.5	-9.8%	nt	5.2	-2.5
O=C(NNC(=O)C1CCN(Cc2ccccc2)CC1)c1cccc(Cl)c1	-5.7	-4.8%	-42.6	-5.7	0.4
CCOC(=O)CSc1ncc(OC)c(Sc2ccc(OC)cc2)n1	1.0	16.8%	-21.7	95.7	6.6
Cc1c(Cl)c([N+](=O)[O-])nn1CCCC(=O)NC(C)c1ccccc1 (stereo not given)	-13.2	-5.0%	-32.0	-12.3	-1.4
CN(C)S(=O)(=O)c1cccc(C(=O)Nc2ccccc2N2CCCCC2)c1	nt	nt	nt	10.2	9.7
COC(=O)c1ccc(NC(=S)N2CCN(Cc3cccc(C)c3)CC2)cc1	2.8	0.3%	-11.1	13.9	-3.2
CC(C)OC(=O)Cn1c(-c2ccccc2)c(-c2ccccc2)nnc1=O	nt	nt	nt	2.3	5.6
Cc1ccc(-c2nnn(CC(=O)N(CCO)C(C(=O)NC3CCCC3)c3ccc(F)cc3)n2)o1 (stereo not given)	6.0	-0.5%	nt	5.7	3.1
Cc1ccccc1OCCSc1nc2ccccc2n1CCC(=O)O	nt	nt	nt	-5.3	0.8
O=C(COC(=O)C1CCC1)NC(=O)c1ccccc1	nt	nt	nt	-15.5	0.0
Nc1nc2ccccc2n1CCOc1ccc(F)cc1	nt	nt	nt	-10.6	1.6
CC(NC(=O)CSc1ncccn1)c1ccc(Cl)cc1Cl (stereo not given)	0.0	1.2%	nt	-4.5	nt
O=S(=O)(Nc1nccs1)c1cc(Cl)ccc1Cl	1.5	-3.6%	-27.0	-1.5	-1.8
CCc1ccc(Nc2cnn(-c3nc4ccccc4s3)c(=O)c2Cl)cc1	16.2	7.3%	-45.4	-0.6	-4.1
Nc1cccnc1Sc1ccc(Cl)cc1	6.9	1.1%	-30.5	-12.3	-2.7
CCn1nc(C)c(/C=N\NC(=O)c2ccc3c(c2)OCO3)c1C	-3.9	4.8%	-5.9	-2.6	-1.8
Cn1c(=O)[nH]c(=O)c2c1nc(N)n2Cc1ccccc1	nt	nt	nt	0.6	-1.6
COc1cc(NC(=O)CSc2ncnc3sc4c(c23)CCC(C)C4)c(C(=O)O)cc1OC (stereo not given)	nt	nt	nt	-2.2	0.3
CC(C)CC1c2[nH]c3ccccc3c2CCN1C(=O)CCC(=O)N(C)C (stereo not given)	2.2	-6.9%	nt	2.9	-14.3
COc1ccc(NC(=O)CSc2nnc(NC(=O)c3ccco3)s2)cc1OC	nt	nt	nt	-15.3	-0.5
CCc1nonc1NC(=O)c1oc2ccccc2c1C	nt	nt	nt	-7.6	-2.4
O=C(CCCN1C(=O)c2cccc3cccc(c23)C1=O)NCc1cccnc1	-7.7	nt	nt	-11.1	0.6
CCSC1=C(C#N)C(c2ccccc2Cl)CC(=O)N1 (stereo not given)	2.9	2.3%	-54.5	0.7	2.1
Cc1ccc(NC(=O)CN2CCc3cc4c(cc3C2C)OCCCO4)cc1 (stereo not given)	nt	nt	nt	7.0	0.7
COC(=O)[C@@H]1C[C@H]2CC[C@H](O)C[C@H]2N1Cc1ccc(C)s1	nt	-12.1%	nt	-2.4	0.1
CCOC(=O)c1c(N)sc2c(NC(C)=O)cccc12	5.7	4.7%	-54.4	4.4	-1.6
CN1C2CCC1/C(=C\c1ccccc1Cl)C(=O)/C2=C\c1ccccc1Cl	-34.7	0.9%	nt	nt	-0.7
Nn1cnnc1SCC(=O)Nc1ccc2c(c1)OCO2	20.9	-2.8%	nt	5.2	2.3
Cc1ccccc1OCC(=O)NC(=S)Nc1cccc2cc(O)ccc12	nt	nt	nt	2.7	-0.6
Cc1cc(=O)[nH]c(N/N=C/c2ccc(OC(=O)c3cccnc3)cc2)n1	15.1	5.1%	nt	-1.7	1.6
CC(=O)N1CC(C)c2scc(C)[n+]2-c2ccccc21 (stereo not given)	-4.5	-3.6%	2.9	3.6	-1.5
Cc1occc1C(=O)N1CCN(S(C)(=O)=O)CC1	-1.1	-17.4%	-1.3	-3.1	-0.5
COc1ccc(-n2c(C)nc(N)c2C(=O)c2ccccc2)cc1	nt	-4.9%	nt	7.5	-0.9
CSC1=NCCN1S(=O)(=O)c1ccc(Cl)cc1	-5.8	-7.3%	nt	-4.9	2.5
CC1CCCC(C)N1C(=O)c1ccc2c(c1)S(=O)(=O)c1ccccc1C2=O (stereo not given)	nt	nt	nt	4.3	1.5
CCOc1ccc(S(=O)(=O)N2CCC(C(=O)N3CCOCC3)CC2)cc1Cl	nt	nt	nt	2.1	0.1
Cc1nc(-c2ccc([N+](=O)[O-])cc2)sc1C(=O)O	6.8	3.1%	nt	-4.3	-0.5
Nc1ccccc1-c1nnc(-c2ccccc2N)n1N	1.9	5.7%	nt	-14.2	2.8
CCOC(=O)c1c(C=O)c(C)n(Cc2ccc(C)cc2)c1C	-8.1	-4.2%	-25.3	12.4	7.7
COc1ccc(S(=O)(=O)Nc2c(NC3CCCCC3)c3ccccc3oc2=O)cc1	nt	nt	nt	1.0	0.5
CC(=O)Nc1ccc(/C=C/C(=O)c2ccccc2)cc1	nt	2.7%	nt	31.2	0.3
O=S(=O)(c1ccc(S(=O)(=O)N2CCOCC2)cc1)N1CCCC1	9.0	-3.5%	nt	-0.5	1.8
COC(=O)c1ccc(COC(=O)[C@@H]2CC(O)CN2S(=O)(=O)c2ccccc2[N+](=O)[O-])cc1 (stereo not given in full)	nt	nt	nt	-4.9	-0.8

(further entries)
SMILES	Arbovirus inh	Mtb growth	YopH inh	Mtb bLac sens	RecA splice inh	others
O=S(=O)(Nc1ncccc1O)c1ccc(Cl)cc1	-0.1	-4.8%	7.9	-0.7	3.0
CC(OC(=O)CCCN=C1NS(=O)(=O)c2ccccc21)C(=O)N(C)c1ccccc1 (stereo not given)	nt	nt	nt	-2.4	-3.2
Cc1cccc(N2CCN(Cc3ccc([N+](=O)[O-])o3)CC2)c1C	nt	nt	nt	99.4	-1.9
CCN(CC)C(=O)Cn1cc(S(=O)(=O)CC(=O)Nc2ccc(F)cc2F)c2ccccc21	nt	nt	nt	-4.4	-0.1
Cc1ccc(S(=O)(=O)N2CCC(C(=O)NCCCN3CCOCC3)CC2)cc1C	nt	nt	nt	-0.3	-0.6
COCCCNCC(O)COc1cccc2[nH]c(C)cc12 (stereo not given)	-0.4	4.1%	nt	7.8	0.4
Cc1cc(C(=O)COc2ccccc2C(N)=O)c(C)n1C	0.6	0.3%	nt	0.2	1.1
CCCCS(=O)(=O)/C=C\C=C/S(=O)(=O)CCCC	-28.5	nt	-31.9	100.4	3.3	Arbovirus inh repeat=-26.3
CS(=O)(=O)Nc1ccccc1C(=O)NC1CC2CCC1C2 (stereo not given)	9.4	4.1%	-25.4	-2.9	6.9
Cc1cccc(OCC(=O)NCCNC(=O)c2cccnc2)c1	nt	nt	nt	1.3	4.3
CC1CCCC(NS(=O)(=O)c2ccc3c(c2)OCCO3)C1C (stereo not given)	10.8	-0.4%	-30.9	-4.9	4.2
COCc1[nH]nc2c1C(c1cc(OC)c(O)c(OC)c1)C(C#N)=C(N)O2 (stereo not given)	-3.2	-9.1%	22.7	2.2	-4.1
COc1ccc(NC(=O)CCNC(=O)Cn2ccc3ccccc3c2=O)cc1Cl	nt	nt	nt	3.3	0.1
C=CCC(=O)N1CCC(n2nccc2NC(=O)CCOc2ccccc2)CC1	nt	nt	nt	5.7	-2.7
COc1cc(CC(=O)Nc2cc(S(C)(=O)=O)ccc2Cl)cc(OC)c1OC	4.7	-4.6%	nt	0.1	-2.7
O=C(Cc1ccsc1)NNC(=O)c1ccccc1Cl	nt	nt	nt	0.7	-1.2
Cc1cc(-c2ccccc2)n(-c2ccc(C(=O)N3CCN(c4ncccn4)CC3)cc2)n1	-12.5	6.9%	-28.3	61.7	-5.2
COC(=O)c1c(NC(=O)CN2C(=O)C(=O)N(CC(C)C)C2=O)sc2c1CCCCC2	3.6	-1.5%	-10.4	?	-2.0
CN(Cc1ccccc1)CC(O)COc1ccc(CNCCCOc2cccnc2)cc1 (stereo not given)	-30.8	-2.0%	nt	-9.5	-3.4
COc1ccc(CCN(C)C(=O)CSc2nc3ncc(Cl)cc3[nH]2)cc1OC	17.6	2.0%	nt	0.6	-0.7

An excerpt from above in order of molar mass, largest number first.
SMILES	Arbovirus inh	Mtb growth	YopH inh	Mtb bLac sens	RecA splice inh	others
Cc1ccc(S(=O)(=O)N2CCC(C(=O)NCCCN3CCOCC3)CC2)cc1C	nt	nt	nt	-0.3	-0.6
Cc1cc(C(=O)COc2ccccc2C(N)=O)c(C)n1C	0.6	0.3%	nt	0.2	1.1
O=S(=O)(Nc1ncccc1O)c1ccc(Cl)cc1	-0.1	-4.8%	7.9	-0.7	3.0

Other entries.
SMILES	Arbovirus inh	Mtb growth	YopH inh	Mtb bLac sens	RecA splice inh	others
COc1ccc(Br)cc1/C=N/Nc1cccc(C(=O)O)c1	-14.8	0.9%	-15.7	14.2	-8.4
O=[N+]([O-])C(/C=C(/Cl)[N+](=O)[O-])=C(N1CCCCC1)N1CCCCC1	nt	-9.4%	nt	?	49.4*
O=C(Cc1cccs1)N1CCN(S(=O)(=O)c2ccccc2)CC1	1.2	-4.8%	-7.6	3.1	-1.0
COc1ccc(CC(=O)OCCN(C)C)cc1	4.3	-4.5%	-8.8	-14.3	-1.6
Cc1ccc2c(n1)sc1c(-c3ccccc3)c(C#N)c(N)nc12	-0.9	3.7%	-47.7	-0.3	-11.3
c1ccc(Cn2nnnc2CN2CCN(c3ncccn3)CC2)cc1	-9.6	-6.3%	-27.8	-16.4	1.2
OCC(O)CN1CCCC1 (stereo not given)	nt	-6.0%	nt	-1.4	-1.1
COc1ccc(NC(=O)C2C3CCC(C3)C2C(=O)O)cc1OC (stereo not given)	-2.0	6.4%	-27.2	-5.2	-1.3
Fc1ccc(F)c(NC2=NCCCCC2)c1	nt	nt	nt	5.7	0.5
CN(C)C(CNC(=O)c1cccc(C#N)c1)c1ccco1 (stereo not given)	6.8	4.5%	nt	-14.9	-1.6
CCN1CCN(C(=O)COc2cc(=O)n(CC)c3ccccc23)CC1	0.8	1.5%	-29.9	-4.1	-1.2

These rows are one share of the data, so the mix of outcomes need not match the whole.
